Source: PubChem
MgrA DNA FP = S. aureus MgrA activity modulators, primary screen, biochemical, S. aureus Newman, fluorescence polarization; AID 602314, 2012; MgrA-DNA binding; 0.13% of 84,000 active; inhibition, %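 (about 10 µg/mL by stock and volumes)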;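 active = above 50% in either of two replicates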;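 note: 0% = protein plus DNA without compound and 100% = DNA alone without protein; higher means less MgrA bound to DNA so lower polarization; one replicate is shown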
Sa helicase inh = inhibitors of S. aureus replicative helicase, primary screen, biochemical, fluorescence unwinding readout. purified S. aureus helicase, fluorescence unwinding assay; about half of the hits fall short of the stated cut. 0.05% of 120,000 active. replicative DNA helicase (DnaC/DnaB), Staphylococcus aureus. inhibition, %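 (tested at about 80 µM)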. AID 485395, 2010;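 active = both duplicates at 50% or more, or one of them with a favoured structure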;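 note: 0% = mean of negative control wells and 100% = mean of positive control wells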
The depositor's hits bear a star; nt = no result given.

SMILES	MgrA DNA FP	Sa helicase inh
Cc1ccc(Cn2nnnc2CN2CCC(NC(=O)C(C)(C)C)CC2)cc1	-4.8	8
O=C1c2ccccc2S(=O)(=O)N1c1c(F)c(F)nc(F)c1F	-1.0	nt
CC(c1ccccc1)n1c(SCCS(=O)(=O)c2ccc(F)cc2)n[nH]c1=O (configuration not stated)	-0.2	nt
CCc1nc2ccccc2n1C(=O)c1cc2c(C)nn(-c3ccc(Cl)cc3)c2s1	nt	-1
Clc1cccc(Nc2nnc(Cc3cccnc3)c3ccccc23)c1	-6.4	20
O=C1OCC2=C1C(c1ccc3c(c1)OCO3)c1c(ccc3ccccc13)N2 (configuration not stated)	4.5	8
CNC(=O)c1cc(-c2ccccc2)c(N2CCOCC2)s1	nt	4
O=C(/C=C/c1ccccc1)OC1CCOC1=O (configuration not stated)	-0.9	8
CCOc1c(Br)cc(C2C3=C(CC(C)(C)CC3=O)OC3=C2C(=O)CC(C)(C)C3)cc1OC	-2.0	nt
O=C(O)Cn1nc(-c2ccccc2)oc1=O	nt	3
CC(=O)Nc1ccc(S(=O)(=O)N2CCN(CCC#N)CC2)cc1	nt	14
O=C(CNc1ccccc1N1CCCCC1)Nc1ccc(S(=O)(=O)N2CCCCC2)cc1	nt	3
CN1CCC(N(C)C(=S)NC2CCCCC2)CC1	-0.1	8
O=C(O)COc1ccc(C(=O)NCc2ccccc2)cc1	1.2	12
CCOC(=O)c1c(C)n(-c2ccccc2)c2c1cc(OC(=O)c1ccc(C)c(C)c1)c1ccccc12	-1.2	nt
COc1cc(OC)c([N+](=O)[O-])c(OC)c1	1.4	nt
O=C(CSC1CCCCC1)N1CCN(c2ccccc2)CC1	nt	1
Cc1cccc(-n2ncc3c(N4CCCC4)ncnc32)c1	nt	2
CCCN(CCC)S(=O)(=O)c1ccc(C(=O)Nc2cccnc2)cc1	0.3	nt
Cc1ccc(CSc2nnc(/N=C/NO)s2)cc1	6.0	nt

15 successive records out of the list so far, quoted:
SMILES	MgrA DNA FP	Sa helicase inh
O=C1OCC2=C1C(c1ccc3c(c1)OCO3)c1c(ccc3ccccc13)N2 (configuration not stated)	4.5	8
CNC(=O)c1cc(-c2ccccc2)c(N2CCOCC2)s1	nt	4
O=C(/C=C/c1ccccc1)OC1CCOC1=O (configuration not stated)	-0.9	8
CCOc1c(Br)cc(C2C3=C(CC(C)(C)CC3=O)OC3=C2C(=O)CC(C)(C)C3)cc1OC	-2.0	nt
O=C(O)Cn1nc(-c2ccccc2)oc1=O	nt	3
CC(=O)Nc1ccc(S(=O)(=O)N2CCN(CCC#N)CC2)cc1	nt	14
O=C(CNc1ccccc1N1CCCCC1)Nc1ccc(S(=O)(=O)N2CCCCC2)cc1	nt	3
CN1CCC(N(C)C(=S)NC2CCCCC2)CC1	-0.1	8
O=C(O)COc1ccc(C(=O)NCc2ccccc2)cc1	1.2	12
CCOC(=O)c1c(C)n(-c2ccccc2)c2c1cc(OC(=O)c1ccc(C)c(C)c1)c1ccccc12	-1.2	nt
COc1cc(OC)c([N+](=O)[O-])c(OC)c1	1.4	nt
O=C(CSC1CCCCC1)N1CCN(c2ccccc2)CC1	nt	1
Cc1cccc(-n2ncc3c(N4CCCC4)ncnc32)c1	nt	2
CCCN(CCC)S(=O)(=O)c1ccc(C(=O)Nc2cccnc2)cc1	0.3	nt
Cc1ccc(CSc2nnc(/N=C/NO)s2)cc1	6.0	nt

Next part
SMILES	MgrA DNA FP	Sa helicase inh
Cc1sc2nc(SCC(=O)N3CCCCC3)[nH]c(=O)c2c1C	nt	9
Cc1noc2ncnc(N3CCCC3CO)c12 (configuration not stated)	nt	-16
O=C(CSc1nc2c(cnn2-c2ccc(Cl)cc2)c(=O)[nH]1)Nc1ccc(F)cc1	nt	-31
Cc1ccc(NC(=O)c2ccc(Br)o2)cc1	0.1	-13
NS(=O)(=O)c1ccc(NC(=O)C2CC=CCC2C(=O)N2CCOCC2)cc1 (configuration not stated)	3.7	6
O=C(O)c1ccc(CSc2n[nH]c(-c3ccco3)n2)cc1	29	-5
CCOC(=O)NNC(=S)Nc1c(C)cccc1C	2.6	nt
O=C1COc2ccc(Cl)cc2N1Cc1cc2c(cc1Cl)OCO2	-1.4	-4
COC(=O)c1ccccc1NC(=O)Cc1noc2ccccc12	nt	-18
O=C(CSc1nc2ccccc2o1)NCC1CCCCC1	-2.0	-13
CCCCC(=O)Nc1cc2nn(-c3ccccc3)nc2cc1C	nt	0
CCOC(=O)C1CCN(C(=O)CNC(=O)Cn2c(C)cc3ccccc3c2=O)CC1	nt	15
COC(=O)c1scc(C#N)c1N=CN(C)C	-2.7	nt
Nc1cccc(-n2cccc2)c1	-0.9	-1
O=S(=O)(c1ccc(NC2CCN(Cc3ccccc3)CC2)nc1)N1CCCCC1	nt	38*
O=S(=O)(c1cc(OCC(F)(F)F)ccc1OCC(F)(F)F)n1cccc1	0.1	nt
O=C(Nc1ccc(SC(F)(F)F)cc1)n1ccc(C(F)(F)F)n1	0.2	nt
Cc1cccc(N2CC(C(=O)Nc3ccc4c(c3)OCO4)CC2=O)c1C (configuration not stated)	nt	-19
O=C1N(c2ccc3c(c2)OCO3)C(c2ccc3c(c2)OCO3)C1(F)F (configuration not stated)	nt	-14
C=C(C)Cn1c(SCC(=O)O)nnc1-c1ccccc1	-4.8	6
CCN(CC)Cc1ccc(Nc2ccnc3cc(Cl)ccc23)cc1O	-4.2	nt
FC(F)(F)c1ccccc1Nc1nc(-c2cccnc2)cs1	-0.1	5
O=C(OCn1nnc2ccccc2c1=O)C12CC3CC(CC(C3)C1)C2	-0.1	8
O=C(CCN1C(=O)c2ccccc2C1=O)Oc1ccc(Cl)cc1	1.1	4
CCOC(=O)C1=C(Nc2ccc(F)cc2)C(=O)N(C2CCCCC2)C1	-2.6	nt
C=CCn1c(O)c(C=Nc2cccc(C)c2)c(=O)[nH]c1=S	2.2	nt
COc1cc2ncnc(NCc3cccc4c3OCO4)c2cc1OC	nt	6
O=S(=O)(c1cc(Br)c(Cl)s1)N1CCCCC1	1.0	nt
CCOC(=O)C1CCN(Cn2c(O)c(N=NC(=S)Nc3cccc(OC)c3)c3ccccc32)CC1	nt	9
FC(F)(F)c1cc(-c2noc(-c3ccno3)n2)cc(C(F)(F)F)c1	-2.5	nt
CC(=O)N(CCN(C)C)c1nc2cc(C)cc(C)c2s1	0.2	9
O=C(Cn1nc(-c2ccccc2)ccc1=O)N1CCOCC1	-1.6	2
C/C(CC(=O)c1ccccc1)=N\n1cnnc1	0.0	-12
C=CCn1c(C)c(C=C(C#N)C#N)c2ccccc21	-0.7	12
COc1ccc(C2=N/C(=C\c3ccc4c(c3)OCO4)C(=O)O2)cc1	nt	-9
Cc1cc(C)nc(NS(=O)(=O)c2ccc(NC(=O)CC3CCCC3)cc2)n1	nt	2
COCCn1nnnc1C(c1ccncc1)N1CCCC1 (configuration not stated)	5.8	5
CN(C)S(=O)(=O)c1ccc(C(=O)Nc2nc3c(s2)CCc2ccccc2-3)cc1	1.9	5
O=c1ccc(=O)n(CN(c2ccccc2)c2ccccc2)[nH]1	0.7	0
O=C1c2cccc3c(SCCO)ccc(c23)C(=O)N1CCc1ccccn1	0.3	nt
CCOc1ccc(N=C2SC(C(=O)Nc3ccc(C(=O)OC)cc3)CC(=O)N2Cc2ccc3c(c2)OCO3)cc1 (configuration not stated)	-1.1	nt
COC(=O)C(Cc1c[nH]c2ccccc12)NS(=O)(=O)c1cccc2nonc12 (configuration not stated)	-0.5	nt
Cc1nn(CCCC(=O)NC2CCCC(C)C2C)c(=O)c2nccn12 (configuration not stated)	nt	11
COC(=O)c1c(C)oc(C)c1S(=O)(=O)N(C)C	4.5	nt
O=C(CCc1cccs1)NC1=NCCS1	nt	-14
O=C(CSCc1cccc2ccccc12)NNC(=S)Nc1ccccc1	4.1	nt
COc1ccc(CNC(=O)NC(=O)c2ccccc2)cc1	0.5	-9
C=CCn1c(=S)sc2c(=O)n(Cc3ccc(Cl)cc3)cnc21	nt	-10
O=S(=O)(c1ccccc1)c1nnn2c1nc(N1CCc3ccccc31)c1sccc12	nt	-2
O=C(CCN1C(=O)C2C3C=CC(C3)C2C1=O)Nc1ccccc1 (configuration not stated)	0.2	1
CC/C(=N\NC(N)=O)c1cc(F)ccc1O	nt	-17
CC(NC(=O)c1ccc(Cl)cc1)c1ccncc1 (configuration not stated)	1.4	16
CC(C)(C)C(=O)NCCC1CC1(Cl)Cl (configuration not stated)	-0.9	nt
CCn1c(=O)c(=O)n(CC)c2cc(S(=O)(=O)NC3CCCCC3)ccc21	-0.2	10
O=C(Nc1ccc(S(=O)(=O)Nc2nccs2)cc1)C1CC(=O)N(c2ccccc2)C1 (configuration not stated)	nt	8
C/C(=C\c1nsc(Nc2ccc(F)c(Cl)c2)n1)N1CCC(C)CC1	3.0	9
O=C(O)c1cnc(-c2ccccc2)nc1N1CCc2[nH]ncc2C1	nt	25
Cc1occc1C(=O)Nc1cnn(CCCC(=O)O)c1	3.0	-14
CC(=O)OC(CC(=O)O)Cc1nc2ccccc2s1 (configuration not stated)	nt	-3
CC1(C)CC(=O)C(C=NCCC(=O)O)=C(O)C1	nt	-27

Additional structures.
SMILES	MgrA DNA FP	Sa helicase inh
Cc1ccc(-c2csc(=N)n2-c2ccccc2)cc1	-1.7	nt
O=C1OC2CC3CC(C2)CC1C3	nt	17
CN1C(=O)/C(=C/c2c(N3CCSCC3)nc3ccccn3c2=O)SC1=S	nt	-15
CC(=O)NCc1ccc(C(=O)CSc2nc3ccccc3c(=O)n2-c2ccc(Cl)cc2)o1	nt	7
S=c1[nH]nc(C2CCCCC2)n1N=Cc1ccncc1	3.7	12
N#Cc1c(-c2ccc3c(c2)OCO3)cc(-c2ccccc2O)[nH]c1=O	2.8	nt
COc1ccc(NC(=O)CSc2nc(C)c(C)c(=O)[nH]2)cc1OC	nt	-3
CN(C)c1ccc(/C=C/c2ccc3ccccc3[n+]2C)cc1	4.6	nt
COc1ccc(CC(=O)Sc2nc3ccccc3o2)cc1	-3.1	10
C[N+](C)(C)CCOP(=O)([O-])OP(=O)(O)OC[C@H]1OC(n2ccc(N)nc2=O)[C@H](O)[C@@H]1O (some centres not stated)	1.5	nt
COc1ccccc1OCCOc1c(Br)cc(C=C2C(=O)N(C)C(=O)N(C)C2=O)cc1OC	2.4	nt
Cc1ccc(-c2noc(CCC(=O)Nc3ccc4c(c3)OCO4)n2)cc1	nt	-2
FC(F)(F)c1cnc(-n2cc(C3OCCO3)c3ccccc32)c(Cl)c1	2.3	nt
C=CCn1cnc2scc(-c3ccc(Cl)cc3)c2c1=O	-4.2	-4
CCOc1ccc2nc(Cl)c(CN(Cc3ccco3)C(=O)N(C)C)cc2c1	0.9	0
COC(=O)c1ccc(NC(=O)CSC(=S)N2CCOCC2)cc1	-3.0	-2
c1ccc(COc2ccc3[nH]ccc3c2)cc1	-3.2	nt
O=C1CC(C2CCCC=C2N2CCCCC2)C(=O)N1c1ccccc1 (configuration not stated)	nt	9
Cc1ccc2c(c1)c1nc3n(c(=O)c1n2CC(=O)N1CCCC1)CCS3	-1.8	15
CCc1ccc(CNC(=O)c2ccc(Sc3ccc(C)cc3)c(NC(C)=O)c2)cc1	0.2	1
COC(=O)N1N=C(c2ccccc2)CC1(O)C(F)(F)F (configuration not stated)	0.8	11
CCOc1cc(C2NC(=O)c3ccccc3O2)ccc1OCC(=O)OC (configuration not stated)	-3.0	1
CCOC(=O)C1CCN(Cc2cn3c(-c4ccc(Br)cc4)nnc3s2)CC1	nt	5
CS(=O)(=O)c1ncc(Cl)c(C(=O)NCCc2ccc(S(N)(=O)=O)cc2)n1	nt	-20
CC(C)(C)c1nc(CN2CCOCC2)ccc1O	nt	-2
O=C(CC(NCc1ccccc1)c1ccccc1O)NCc1ccccc1 (configuration not stated)	-2.4	15
CN(CC(=O)c1c(N)n(C)c(=O)n(C)c1=O)Cc1nc2ccccc2c(=O)[nH]1	nt	2
COc1ccc(CC(=O)N2CCC(c3ccccc3)C2)cc1 (configuration not stated)	0.9	1
CCOC(=O)N1CCN(C(=O)c2cnn3ccccc23)CC1	-1.1	13
COC(=O)c1cc2c(cc1NC(=O)Cn1nc(Cc3ccncc3)c3ccccc3c1=O)OCO2	nt	-10
Cc1ccc(-n2nc(C)cc2N)cc1	nt	4
Cc1ccc(C2C(C#N)=C(N)N(N3CCOCC3)C3=C2C(=O)CC(C)(C)C3)cc1 (configuration not stated)	nt	-19
Cc1c(C(=O)N2CCCC2)oc2ccc3c(c12)C(O)CC1(CCCCC1)O3 (configuration not stated)	nt	18
CN(c1ccnc(C(=O)NCc2ccccn2)c1)S(=O)(=O)c1ccccc1	nt	6
O=c1oc(-c2cc3c(s2)CCC3)nn1CCN1CCCC1	-2.7	10
Cc1ccc([N+](=O)[O-])cc1N=Cc1nc(-c2ccc(Br)cc2)oc1O	1.5	nt
O=C(O)c1cnn2c1[nH]c(=O)c1ccccc12	-6.3	nt
C=CCNc1cnn(Cc2ccccc2)c(=O)c1Cl	nt	-9
Cn1c(=O)cc(Nc2ccc(F)c(Cl)c2)c2ccccc21	-1.1	-12
CN1CCN(NC(=O)c2csc3ccccc23)CC1	2.2	-10

2 records drawn at random from the list so far, as already listed:
SMILES	MgrA DNA FP	Sa helicase inh
Cc1ccc(C2C(C#N)=C(N)N(N3CCOCC3)C3=C2C(=O)CC(C)(C)C3)cc1 (configuration not stated)	nt	-19
Cc1ccc(-n2nc(C)cc2N)cc1	nt	4

(further entries)
SMILES	MgrA DNA FP	Sa helicase inh
CCNC(=O)CC1C(=O)N(c2ccc(F)cc2)C(=O)N1Cc1ccc(F)cc1 (configuration not stated)	nt	-11
CCOc1cccc2sc(NC(=O)CC)nc12	nt	4
CC(=O)COc1ccc2c(c1C)OC(C)(C)CC2=O	-2.4	nt
O=C1C2C3C=CC(C3)C2C(=O)N1c1ccc(-c2nc3ccccc3o2)cc1 (configuration not stated)	-1.5	6
CCOC(=O)c1cc(=O)c2c(O)cccc2o1	3.1	nt
O=c1[nH][nH]c(=O)c2ccccc12	0.9	nt
COc1ccccc1C(CC(=O)NC1CCOC(C)(C)C1)c1ccc(OC(C)C)cc1 (configuration not stated)	-0.9	10
O=C(Cn1nnc2sc3c(c2c1=O)CCCC3)N1CCCCC1	nt	7

Not all compounds are listed; rates above refer to the full screens.
